TRPV1 potentiator: HTS Assay for Compounds that Act as Potentiators of the Vanilloid Receptor 1; TRPV1-expressing cells, Fluo-8 calcium influx, capsaicin EC20 potentiation; host cell line not named in the record; control for the full effect not named in the record; hit rate 0.02% among 320,000; potentiation, % at 8.33 µM; active means potentiation above 80%; inconclusive means 30% to 80%; inactive means below 30%; also: 0% is about no effect
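TRPV1-expressing cells were cultured overnight at 35.5C and loaded with Fluo-8 calcium dye for 40 to 90 min at room temperature. After a 10 s baseline, compound was added and calcium influx was read kinetically for 3 min (ex 480/em 520 nm).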
CtBP-E1A blk: qHTS Assay for Inhibitors of the CtBP/E1A Interaction; CtBP / adenovirus E1A interaction (AlphaScreen); AlphaScreen GST-E1A/His-CtBP binding, 1536-well; active compounds read low; control for the full effect not named in the record; activity change, % (test concentration not listed); hit rate 0.49% among 340,000; in the data active means activity change below about -65%; inconclusive means about -30% to -65%; inactive means above about -30%; also: % is scaled to controls: 0 for no effect and ±100 for the full control effect
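GST-E1A and His-tagged CtBP (125 nM each as 5X stock) were preincubated with pin-transferred compound for 2 h at 37 °C in the dark, then glutathione donor and nickel acceptor beads were added for 1 h before AlphaScreen reading.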
PINK1 expr mod: A Quantitative High throughput Screen to Identify Chemical Modulators of PINK1 Expression. AID 624263, 2012. hit rate 0.2% among 410,000. Potency, µM (top dose mostly 76.6 µM), inactives show at the highest dose activation (PINK1 increase), most hits filed as activators. PINK1 immunofluorescence, high-content cytometry, 24 h; active = well fitted activation curve with a large enough effect; inconclusive = small, poorly fitted or top-dose-only effect; inactive = flat fitted curve, though single readings scatter; cell line not stated here;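 also: potency is read from the fitted curve at half-maximal effect; % of control where 0% means no effect; nearly all actives have a fitted effect of over 65% in size; a mitochondrial uncoupler was the plate control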
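PINK1 protein level read as immunofluorescence by microplate cytometer in a fixed, stained stable cell line after 24 h exposure to five compound concentrations, with CCCP as control.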
D2 potentiator: Beta-Arrestin HTS for Positive Allosteric Modulators of the Human D2 Dopamine Receptor: Potentiators | D(2) dopamine receptor (Homo sapiens), P14416 | DiscoveRx D2 beta-arrestin cells, luminescence, 90 min; 100% = 57 uM dopamine signal | potentiation, % (concentration not given with the values) | hit rate 0.23% among 360,000 | AID 624464, 2012; active = potentiation of 50% or more; inconclusive = 30% to 50%; inactive = 30% or less;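 also: compound concentration not given in the record; tested on top of an EC20 dose of dopamine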
Target sequence (P14416 whole entry, looked up): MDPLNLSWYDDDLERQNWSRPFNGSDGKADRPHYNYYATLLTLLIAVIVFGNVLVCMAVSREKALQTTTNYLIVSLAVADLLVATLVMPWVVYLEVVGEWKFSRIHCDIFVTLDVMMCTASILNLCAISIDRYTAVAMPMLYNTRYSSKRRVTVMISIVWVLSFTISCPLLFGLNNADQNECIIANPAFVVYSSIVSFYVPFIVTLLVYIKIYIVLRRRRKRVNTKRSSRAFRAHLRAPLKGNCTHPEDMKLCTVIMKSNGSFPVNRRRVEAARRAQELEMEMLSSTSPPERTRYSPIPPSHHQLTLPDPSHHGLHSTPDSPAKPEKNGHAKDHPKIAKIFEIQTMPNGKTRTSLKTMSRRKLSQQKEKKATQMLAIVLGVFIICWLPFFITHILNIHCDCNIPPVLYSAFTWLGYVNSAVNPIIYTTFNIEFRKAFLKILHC
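PathHunter D2 cells, attached overnight at 37 deg C, received compound in DMSO plus dopamine at EC20 (50 nM final) for 90 min at 37 deg C. Beta-arrestin recruitment was read as luminescence after 1 h with detection reagent at ambient temperature.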
D2 agonist: Beta-Arrestin HTS for Positive Allosteric Modulators of the Human D2 Dopamine Receptor: Agonists. D(2) dopamine receptor (Homo sapiens), P14416. DiscoveRx PathHunter D2 beta-arrestin, luminescence, 90 min; 100% = 57 uM dopamine signal. activation, % (concentration not given with the values). hit rate 0.084% among 360,000. AID 624465, 2012; in the data active = activation above about 40%; inconclusive = about 15% to 40%; inactive = below about 15%; also: compound concentration not given in the record; the text of the record calls up to 30% inactive
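DiscoveRx PathHunter D2 beta-arrestin cells (2,100/well) attached overnight, then compound-stimulated 90 min at 37 C in HBSS/10 mM HEPES/0.1% Tween-20 buffer; beta-galactosidase complementation read by luminescence after 1 h at ambient temperature. Dopamine 57 uM final (EC100) as control.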
Six1-Eya2 blk: qHTS Assay for Inhibitors of the Six1/Eya2 Interaction | Homeobox protein SIX1 (Homo sapiens) + Protein phosphatase EYA2 (Homo sapiens), … | AlphaScreen GST-Six1/His-Eya2 binding, biochemical; active compounds read low; control for the full effect not named in the record | activity change, % (no concentration beside the values) | hit rate 0.56% among 360,000; in the data active = activity change below about -65%; inconclusive = about -30% to -65%; inactive = above about -30%; also: % is scaled to controls: 0 for no effect and ±100 for the full control effect
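Homogeneous AlphaScreen proximity assay pairing GST-Six1 with His-tagged Eya2 (added as 5X mix: 250 nM and 500 nM) in 50 mM Tris pH 8.0, 300 mM NaCl, 1 mM TCEP. Glutathione donor and nickel acceptor beads; 1 h, 37 °C, dark.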
Sfp inh: qHTS Assay for Inhibitors of Bacillus subtilis Sfp phosphopantetheinyl transferase (PPTase); 4'-phosphopantetheinyl transferase ffp (Bacillus subtilis), Q9F4F7; Biochemical Sfp PPTase activity, qHTS; Potency, µM, for the others: max response, negative = inhibition, most hits filed as inhibitors; hit rate 3.5% among 310,000; active = well fitted inhibition curve with a large enough effect; inconclusive = small, poorly fitted or top-dose-only effect, or another doubt; inactive = no such curve, though single readings can be large or run the other way;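 also: the enzyme is Sfp with the accession as filed and its product quenches rhodamine fluorescence; potency is read from the fitted curve at half-maximal effect; 0% = enzyme reaction without inhibitor and -100% = no enzyme wells; top concentration of the series not given in the record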
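Buffer: 50 mM Hepes-Na pH 7.6, 10 mM MgCl2, 0.01% Nonidet P-40, 0.01% BSA. Enzyme 15 nM, pre-exposed to compound 15 min; substrates then added and fluorescence change tracked over 30 min.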
* hit, by the source's call; ? = inconclusive; / = not tested or not shown; & = joins results of further samples; [ ] = another dose, or the depositor's remark.

smiles	TRPV1 potentiator	CtBP-E1A blk	PINK1 expr mod	D2 potentiator	D2 agonist	Six1-Eya2 blk	Sfp inh
CCn1nnc(NC(=O)c2c(OC)cccc2OC)n1	-4	6	-1.0%	3	?	-9	-3%
O=C(c1cccc(S(=O)(=O)NCc2ccccc2)c1)N1CCN(Cc2ccccc2)CC1	2	9	0.4%	-10	2.0	-8	18%
CCc1nc2ccc(C(=O)Nc3cccc(NS(C)(=O)=O)c3)cn2c1N(C)CCCc1ccccc1	/	-4	1.0%	-1	6.2	-2	/
CC(=O)Nc1ccc(S(=O)(=O)Nc2ccc(S(=O)(=O)Nc3nccs3)cc2)cc1	6	-1	1.9%	-4	-3.6	-7	7%
CCCCn1c(N)c(N(CCOC)C(=O)c2cc3c(s2)CCC(C)C3)c(=O)[nH]c1=O (stereo not drawn)	-20	0	2.3%	-2	1.4	-2	/
CCCn1nc(NC(=O)C2CCCO2)c2cc3ccc(C)cc3nc21 (stereo not drawn)	-14	23	5.5%	2	1.1	17	6%
CCOC(=O)/C=C1\SC(C)C(=O)N1CC(=O)N(CCC#N)c1ccccc1 (stereo not drawn)	0	/	1.2%	-13	0.5	5	/
C[C@H](N)c1nnc(SCC(=O)N(C)C)o1	-12	0	-1.3%	-5	-2.1	0	?
Cc1cccc([C@@H]2[C@@H]3C(=O)N(Cc4ccccc4)C(=O)[C@@H]3[C@]3(Cc4ccccc4)C(=O)N(c4cccc(F)c4)C(=O)N23)c1	?	-4	-2.2%	-9	-2.8	-8	/
CC(C)CC[n+]1ccccc1/C=C/c1ccc(N(C)C)cc1	12	-2	32µM*	-10	-1.8	2	9%
O=C(NCCc1ccc(Cl)cc1)C1CCCN(S(=O)(=O)N2CCCCCC2)C1 (stereo not drawn)	-10	/	-0.2%	-13	-5.9	9	4%
N#Cc1nc(-c2ccccc2Cl)oc1N1CCCCC1	-2	-24	-1.0%	-22	-2.3	?	-6%

(list continues)
smiles	TRPV1 potentiator	CtBP-E1A blk	PINK1 expr mod	D2 potentiator	D2 agonist	Six1-Eya2 blk	Sfp inh
O=C1CCN(CCc2ccccc2)CCN1CCO	-15	8	1.1%	0	1.1	0	11%
COc1cc(NC(=O)CN2C(=O)NC(CC(C)C)C2=O)cc(OC)c1OC (stereo not drawn)	9	3	-0.1%	-1	1.3	4	/
CCCC1(CCC)NC(=O)N(CC(=O)Nc2cccc(OC)c2)C1=O	-1	3	0.1%	-11	-3.7	5	20%
Fc1ccc(-c2n[nH]c(=S)c3ccccc23)cc1	8	1	0.7%	-18	-2.2	-2	12%
CCOC(=O)c1cc(NC(=O)c2c(C)noc2C)cc(C(=O)OCC)c1	3	4	1.4%[38.3 µM]	-7	0.1	-1	13%
COc1cc(NC(=O)c2ccccc2[N+](=O)[O-])ccc1NC(=O)C(C)C	0	9	5.9%	-6	0.6	19	11%
Cc1cc(S(=O)(=O)n2[nH]c(=O)c(CCO)c2C)c(Cl)cc1Cl	-12	-7	-1.3%	14	-1.3	4	10%
COc1cccc(NC(=O)N2CCCC2C(=O)NC(C)C)c1 (stereo not drawn)	-10	-1	-0.4%	-9	-0.4	-2	-3%
Clc1ccccc1CNc1ncnc2nc[nH]c12	21	9	0.4%&-0.9%&-0.2%	-5	-2.4	3	-11%
CCc1ccc(-n2c(C)cc(/C=N/NC(=O)OC)c2C)cc1	-16	/	?	-10	-1.7	-16	-20%
O=C(CSc1ncnc2sc(-c3ccccc3)cc12)NC1CCS(=O)(=O)C1 (stereo not drawn)	-1	5	15%	2	1.8	-2	-1%
CSCCC(NC(=O)c1cccc(C)c1)C(=O)OCN1C(=O)c2ccccc2C1=O (stereo not drawn)	1	-6	6.2%	17	-2.7	-1	/

Continued:
smiles	TRPV1 potentiator	CtBP-E1A blk	PINK1 expr mod	D2 potentiator	D2 agonist	Six1-Eya2 blk	Sfp inh
Cc1noc2ncnc(Sc3ccc(Cl)cc3)c12	23	1	1.7%	-1	-0.8	4	-11%
CCCCCCCn1c(=O)c(C(=O)OC)c(N)c2ccccc21	15	-2	3.8%	-5	-0.6	-11	-17%
O=C(CSc1ncccn1)NN=C1CCCCCCC1	4	0	1.3%	-2	0.7	7	10%
O=C(CCN1C(=O)/C(=C/c2ccccc2Cl)SC1=S)NC1C=CS(=O)(=O)C1 (stereo not drawn)	4	/	8.3%	-2	8.2	-11	-20%
Cc1cccc(NC(=O)C(C)Sc2nc3ccccc3c(=O)n2CCCN2CCOCC2)c1 (stereo not drawn)	-22	2	-0.9%	-2	-3.8	-1	/
CCOc1ccc(C(=O)CCC(=O)Nc2ccc(C)cn2)cc1	-4	0	2.3%	-11	4.8	3	/
CCSC1=C(C#N)C(c2ccc(C)s2)CC(=O)N1 (stereo not drawn)	18	0	5.2%[38.3 µM]	-9	1.9	1	-6%
Cn1cccc1CC(=O)NNC(=S)Nc1ccc(Cl)cc1	8	-12	-0.5%	-22	-9.9	1	7%
COc1cccc(-c2noc(-c3ccc4c(c3)OCO4)n2)c1	0	21	13%	-2	-2.5	8	13%
S=C(NCc1ccco1)N1CCN(c2nc(-c3ccc(Cl)cc3)cs2)CC1	0	0	13%	-5	-2.7	-13	?
COC(=O)C1=C(C)N(Cc2ccco2)C(=O)C1	-2	-1	0.0%	-20	-4.1	-13	?
COc1ccc(N(Cc2cc3cc(C)ccc3[nH]c2=O)C(C)=O)cc1	9	/	-0.2%	-1	6.2	-4	5%

(list continues)
smiles	TRPV1 potentiator	CtBP-E1A blk	PINK1 expr mod	D2 potentiator	D2 agonist	Six1-Eya2 blk	Sfp inh
O=C1NC[C@@H](CCCCN2C[C@H](Cc3ccccc3)N(CCc3ccc(O)cc3)C(=O)C2=O)N(Cc2ccccc2)C1=O	/	3	2.5%	/	/	-5	/
O=C(Cc1ccccc1Cl)N1CCN(c2ccccn2)CC1	-3	0	0.2%	-6	-0.2	2	14%
CN(C)/C=C(\c1cnc(Cl)s1)S(=O)(=O)c1ccccc1	9	-5	1.4%	-13	-3.7	3	6%
Cc1ccc(C(C(=O)NC2CCCC2)N(Cc2ccc(F)cc2)C(=O)c2csnn2)o1 (stereo not drawn)	14	-8	-2.8%	-15	-1.0	-2	-5%
CN(C(=O)CSc1nc2scc(-c3ccccc3)c2c(=O)[nH]1)c1ccccc1	/	-12	-1.4%	-4	0.5	-6	/
COc1ccc(C(=O)Nc2cccnc2Sc2ccc(Cl)cc2)cc1	-18	-2	2.3%	0	-0.6	8	2%
COCCN1C(=O)CCC1(C)C(=O)NC1CCCCC1 (stereo not drawn)	/	5	0.2%	1	1.9	3	/
CC(C)C(C(=O)NC1CCCC1)N(CC1CCCO1)C(=O)CNS(=O)(=O)c1ccccc1 (stereo not drawn)	-53	-26	1.9%	-2	8.7	-9	13%
O=C(Nc1ncc(Cc2cccc(Cl)c2Cl)s1)c1ccc([N+](=O)[O-])cc1	/	-1	15%	4	1.9	-4	0%
CCSc1nnc2nc3[nH]c4c(C)cccc4c3nn12	-10	-20	-0.2%	2	0.5	?	-2%
O=C(c1ccc(Cl)cc1)N1N=CCC1(O)c1ccc(Cl)cc1 (stereo not drawn)	3	/	2.0%	-14	-0.8	-2	14%
Cc1ccccc1C(=O)Nc1nnc(CC(=O)N/N=C/c2ccco2)s1	2	-18	-0.6%	0	-1.5	-9	-25%

Continuation:
smiles	TRPV1 potentiator	CtBP-E1A blk	PINK1 expr mod	D2 potentiator	D2 agonist	Six1-Eya2 blk	Sfp inh
CCCCOc1ccc(-c2c(C#N)c(N)nc(SCC(N)=O)c2C#N)cc1	13	-1	9.4%	-10	-0.9	-5	-15%
CCCCN1CC(N2CCCCC2)CS1(=O)=O (stereo not drawn)	/	7	0.0%	-5	-2.1	0	/
COc1ccc(C(=O)NC2CC(C)(C)Cc3c2cnn3-c2ccccc2C)o1 (stereo not drawn)	-8	-2	?	-12	-2.7	-9	12%
CCCc1cc(=O)n2[nH]c(NCc3ccc(OC)cc3)nc2n1	2	6	0.2%	-1	5.3	-1	-7%
O=C(/C(=C/O)N=Nc1ccccc1Cl)c1ccccc1	-24	/	14%	-16	0.5	-17	3%
Cc1c(CCOC(=O)C23CC4(C)CC(C)(CC(C)(C4)C2)C3)sc[n+]1CC(=O)c1ccccc1	2	-2	14%	-8	-0.9	-1	?
N#Cc1cc2c(=O)n3ccccc3nc2n(-c2ccccc2Cl)c1=O	17	8	6.6%	-1	-3.3	-1	-7%
CN(/N=C/c1cccnc1)c1cnc2ccccc2n1	1	0	-0.5%	-5	-0.1	-6	14%
COCCn1c(C)cc(C(=O)COc2ccc(C)nc2[N+](=O)[O-])c1C	-2	/	11%	-13	-5.1	-16	-17%
Cn1c(N)c(C(=O)COC(=O)C2(c3ccccc3F)CCCC2)c(=O)n(C)c1=O	-1	9	0.0%	-19	0.6	11	-4%
COc1cc(C(=O)Nc2ccc(Br)cc2C(=O)c2cc(OC)c(OC)c(OC)c2)cc(OC)c1OC	-4	0	13%[38.3 µM]	-2	1.8	2	-4%
Clc1ccc(CNc2ncccn2)cc1	-13	4	1.8%	-9	1.1	1	4%

Bioassay records (PubChem BioAssay)
